MT1-MMP act inh: blocks activation of human MT1-MMP. P50281. HT1080 RFP-PRO-GFP cells, GFP/RFP ratio fluorescence, overnight; percent of plate control window, DMSO zero. GFP/RFP ratio change, % at 20 µM. 360,000 compounds, 0.061% hits. AID 651647;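 active = GFP/RFP ratio change of at least 30% with cell ATP level not reduced by more than half and red fluorescence within 50% of control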; note: strong numbers were not always called active
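Assay system – RFP-PRO-GFP reporter HT1080 cells · Compound dosing – single dose of 20 µM compound, 1% DMSO final · Incubation – overnight compound exposure at 37 °C · Measure – GFP/RFP fluorescence ratio · Benchmarks – DMSO wells and RFP-L50D-GFP cells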
CSC inhib: cancer stem cell inhibition | 300,000 compounds, 1.1% hits | cancer stem cell-like cells viability, luminescence | inhibition, % at 7.5 µM | AID 2717;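 active = mean at 75% or more and at least half the replicates too; tested in HMLE shEcad cells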;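 note: 0% = median of negative and 100% = median of positive control wells; the first replicate is given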
PABP FP inh: blocks human PABP binding to poly(A) RNA; P11940; fluorescence polarization; inhibition, % at 35 µM; 290,000 compounds, 1% hits; AID 2014;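 active = 50% or more with normal probe brightness, or confirmed in later tests; about a fifth of its hits are not listed in these tables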;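 note: calls also rest on retests at 20 µM and on dose response follow-up; controls were probe without protein and protein plus probe with vehicle; some compounds called inactive have numbers as strong as hits; many hits fall short of the cut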
Target sequence (P11940 whole entry, looked up): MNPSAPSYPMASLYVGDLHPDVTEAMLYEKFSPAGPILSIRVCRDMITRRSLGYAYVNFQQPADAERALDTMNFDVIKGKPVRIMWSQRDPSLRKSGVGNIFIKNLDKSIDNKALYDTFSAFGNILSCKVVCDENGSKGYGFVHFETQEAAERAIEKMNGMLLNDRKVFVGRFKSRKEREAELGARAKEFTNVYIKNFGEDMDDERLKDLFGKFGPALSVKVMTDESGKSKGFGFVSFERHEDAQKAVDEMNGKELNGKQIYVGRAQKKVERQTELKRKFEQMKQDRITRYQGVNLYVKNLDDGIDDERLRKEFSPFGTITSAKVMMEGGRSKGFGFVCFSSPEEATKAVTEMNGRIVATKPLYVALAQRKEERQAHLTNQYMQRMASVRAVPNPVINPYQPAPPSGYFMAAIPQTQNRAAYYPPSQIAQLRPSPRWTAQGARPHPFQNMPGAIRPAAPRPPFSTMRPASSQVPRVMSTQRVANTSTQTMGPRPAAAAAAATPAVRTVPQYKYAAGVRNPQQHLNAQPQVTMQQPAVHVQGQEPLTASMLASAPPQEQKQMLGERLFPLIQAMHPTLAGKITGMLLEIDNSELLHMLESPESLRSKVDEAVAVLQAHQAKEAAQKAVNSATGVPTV
eIF4H FP inh: inhibitors of RNA binding by human eIF4H. 290,000 compounds, 0.94% hits. eIF4H fluorescence polarization binding assay. Q15056. AID 2012. inhibition, % at 35 µM;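 active = 50% or more with normal probe brightness, or confirmed in later tests; about a fifth of its hits are not listed in these tables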;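 note: calls also rest on retests at 20 µM and on dose response follow-up; 0% = protein and probe with vehicle and 100% = probe without protein; strong numbers were not always called active; many hits fall short of the cut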
Env fusion inh: blocks HIV Env-driven cell-cell fusion; HeLa-JRFL Env/CEM21 cell fusion, luciferase; inhibition, % at 12.3 µM; 360,000 compounds, 1.1% hits; AID 651610;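 active = mean replicate inhibition score of at least 50 and every replicate individually at or above 50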;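 note: 0% = plate neutral controls and 100% = maraviroc near 300 nM; one replicate is shown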
Yeast UUG start: modulators of start codon recognition fidelity in yeast | activity score, % at 18.7 µM | 350,000 compounds, 0.13% hits | S. cerevisiae UUG-firefly luciferase reporter, luminescence/redox ratio;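 active = replicate mean at a twofold rise or more, about +100% in these data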;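 note: firefly luciferase made from a UUG start codon reports start codon fidelity; reporter light over untreated wells divided by growth signal over untreated wells; some hits fall short of that in this replicate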
Rce1 inh: inhibitors of yeast Ras-converting enzyme | calls only | 290,000 compounds, 0.27% hits | yeast membranes, quenched prenylated peptide cleavage fluorescence | Q03530;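 active = fall in fluorescence gain of 50% or more versus controls, with final raw signal at or below 3038400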;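 note: plate controls were neutral control wells for no effect and wells lacking membranes for full effect; tested at 10 µM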
Target sequence (Q03530 whole entry, looked up): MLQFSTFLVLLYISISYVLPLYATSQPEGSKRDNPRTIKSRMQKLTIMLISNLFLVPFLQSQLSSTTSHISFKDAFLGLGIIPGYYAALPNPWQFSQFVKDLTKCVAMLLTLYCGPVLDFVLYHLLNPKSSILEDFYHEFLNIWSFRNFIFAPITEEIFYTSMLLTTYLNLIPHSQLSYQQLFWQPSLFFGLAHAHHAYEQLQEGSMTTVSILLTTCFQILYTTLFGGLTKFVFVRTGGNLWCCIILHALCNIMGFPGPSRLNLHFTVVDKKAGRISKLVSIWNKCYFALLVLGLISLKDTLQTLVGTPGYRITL
MT1-MMP act inh RFP: second read-out of MT1-MMP act inh, no call of its own (marks repeat the call); RFP signal change, %; measured here: RFP expression control read;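 0 = vehicle wells; hits needed this value within 50% of zero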
* hit, by the source's call; i = inactive; . = not tested or not shown. A portion of the library. The share of hits here may be higher or lower than overall.

Compound,CSC inhib,Env fusion inh,MT1-MMP act inh,PABP FP inh,Rce1 inh,Yeast UUG start,eIF4H FP inh,MT1-MMP act inh RFP
CCOC(=O)N1CCC(n2c(SCC(=O)N3CCC(C)CC3)nc3ccccc3c2=O)CC1,1.0,54.4*,-5.3,3.3,i,13.5,6.6,-21.6
CCOc1ccc(S(=O)(=O)NCc2ccccc2)cc1C(N)=O,-13.0,11.4,2.2,-11.1,i,.,12.2,-3.4
COC(=O)c1ccc(C(NC(=O)c2cccnc2)NC(=O)c2cccnc2)cc1,-11.4,-7.0,-3.2,-2.8,i,.,9.8,-0.1
C/C(=N\N=C(N)N)c1cc(Cl)ccc1Cl,-2.4,3.4,-7.2,-3.1,i,.,-6.5,1.1
O=C(CNC(=O)c1ccccc1)NCC(=O)OCC(=O)c1ccc(F)cc1,-2.3,32.9,4.0,-0.6,i,-2.6,-8.3,1.5
COc1cccc(-c2cc(C(=O)NCC3CCCO3)on2)c1 (centres undefined),-4.6,-28.9,4.0,-6.1,i,-19.3,-7.1,6.4
O=C(Cn1cc(C(=O)c2ccco2)c2ccccc21)NCc1ccco1,1.4,-465.0,0.3,-3.9,i,2.0,-6.9,-1.3
Cc1ccc(C)c(NC(=O)CN(C)C(=O)c2ccc(-c3ccc(Cl)cc3)o2)c1,.,11.0,-0.7,.,i,.,.,-2.8
O=C(Nc1ccc(S(=O)(=O)N2CCCC2)cc1)c1ccc(Cl)nc1,.,7.0,3.1,.,i,.,.,-6.0
CC(=O)c1ccc(NC(=O)C2CC2c2ccccc2)cc1 (centres undefined),-4.4,-5.9,-6.9,.,i,.,.,-1.9
CCC(=O)Nc1c(OC(=O)CC)ccc2c(C)cc(=O)oc12,-15.4,6.9,-0.9,9.7,i,-21.6,4.7,9.4
CC1CCN(C(=O)C2CCN(S(=O)(=O)c3cccc4nonc34)CC2)CC1,-5.2,-1.3,-2.4,4.1,i,5.7,-6.9,-0.8
CCc1nnc(NC(=O)CSc2nnc(C(C)NC(=O)c3ccccc3F)n2C)s1 (centres undefined),.,-0.5,1.6,6.3,i,-14.0,-9.6,4.2
Cc1ccc(C(=O)C(O)C(c2ccc(C)cc2)N2CCCCC2)cc1 (centres undefined),17.1,-11.3,-1.0,-3.5,i,.,0.4,4.2
CCOc1ccc(NC(=O)C2CC(=O)N3CCCN=C3S2)cc1 (centres undefined),-11.9,11.3,0.6,-3.5,i,-19.3,-8.0,0.8
O=C(CCNC(=O)c1ccccc1Cl)NCCCSc1ccccc1,-13.7,.,2.7,.,.,-13.9,.,1.4
C=CC[C@H](CC(=O)N(CCO)Cc1ccccc1)C(=O)NCCOC(=O)[C@@H](CC=C)Cc1ccc(F)cc1,.,2.5,10.3,.,.,9.8,.,-14.4
C/C(=N\NC(=O)Cc1c(C)[nH][nH]c1=O)c1ccc2ccccc2c1,.,-12.4,.,0.7,i,.,4.9,.
CCOC(=O)C1=C(C)NC(=O)C(C#N)C1c1ccco1 (centres undefined),.,.,1.7,10.9,i,.,7.5,-1.6
Cc1ccccc1OCC(=O)N1CCCCCCC1,-17.8,-18.7,-2.6,3.7,i,-14.3,-2.9,-0.2
Cc1ccc(-c2nc(=O)[nH]c3ccccc23)cc1,-16.2,4.6,-2.3,4.9,i,-30.8,7.8,-3.8
COc1ccc(C2/C=C\CN(Cc3ccc(N(C)C)cc3)CC(=O)N2Cc2ccc(F)cc2)cc1 (centres undefined),28.8,-4.2,8.6,4.2,i,5.7,-15.5,-1.0
O=S(=O)(c1ccc(N2CCCC2c2nc3ccccc3s2)nc1)N1CCOCC1 (centres undefined),.,-13.8,-1.1,-4.4,i,.,2.0,-4.1
O=C(Cc1ccccc1)NCC(=O)N1CCN(Cc2cccc(Cl)c2)CC1,-17.7,.,2.2,.,.,-3.9,.,-4.7
CCOC(=O)/C=C/C(=O)Nc1cccc([N+](=O)[O-])c1,107.8*,.,1.0,13.1,i,.,3.9,4.0
CCOC(=O)NC1(C(F)(F)F)NC(=O)N(c2ccc(F)cc2)C1=O (centres undefined),-0.1,-18.1,2.5,3.5,i,.,3.4,4.5
CN(C(=O)Nc1ccc(Cl)c(Cl)c1)c1ccccc1C(=O)O,19.6,.,1.3,-4.0,i,.,-1.2,-1.0
COc1ccc2[nH]c(C(=O)Nc3ncc(C)cc3Br)cc2c1,-8.4,-3.5,-0.9,-8.4,i,.,-3.8,-0.4
COc1ccc(CNCCCn2cnc3c(OCc4ccccc4)ncnc32)cc1,.,7.5,-2.1,.,.,-16.1,.,0.1
CC1(C)CC(=O)C(CC2=C(O)CC(C)(C)CC2=O)C(=O)C1,-6.5,6.2,-1.0,-9.4,i,-7.1,4.4,2.0

The listing continues:
Compound,CSC inhib,Env fusion inh,MT1-MMP act inh,PABP FP inh,Rce1 inh,Yeast UUG start,eIF4H FP inh,MT1-MMP act inh RFP
CC1=NN(c2ccccc2)C(=O)/C1=C/c1cc2cc(C)ccc2nc1N1CCCCC1,61.4,.,.,8.0,i,.,-1.1,.
O=C(O)Cc1ccc(N2N=C(c3ccccc3)CC2=O)cc1,.,12.9,4.4,.,.,-19.5,.,0.6
CCN(CC)C(=O)COc1ccc(/C=C(\C#N)S(=O)(=O)c2ccccc2)cc1OC,-9.4,2.3,0.4,0.9,i,1.7,-14.4,2.9
COc1ccc(C)cc1S(=O)(=O)N(CC(=O)NCc1ccco1)c1ccc(C)cc1,-12.6,1.1,-5.9,-10.0,i,1.9,-10.0,-0.8
O=C(N/N=C/c1ccc(-c2ccc(S(=O)(=O)Nc3ncccn3)cc2)o1)c1cc2ccccc2cc1O,-4.6,.,1.3,52.1*,i,-13.9,82.6*,-5.7
O=C(CC1C(=O)NCCN1Cc1cccc(Oc2ccccc2)c1)NCCCn1cccn1 (centres undefined),-4.2,-4.4,-2.8,6.3,i,0.8,0.9,-2.1
CC(C)(C)c1ccc(/C=N/NC(=O)C[n+]2ccccc2)cc1,-4.9,-19.8,2.7,-8.5,i,-11.9,-2.2,2.0
Cc1ccccc1OCC(=O)NNC(=O)c1ccc(-c2ccccc2)cc1,2.6,.,2.1,-3.2,i,-5.0,-3.2,-0.7
Cc1ccccc1-n1c(=O)cc(N2CCc3ccccc32)[nH]c1=O,-9.9,-49.7,2.4,16.1,i,-21.5,-5.0,6.5
CCOc1ccc(NC(=O)C2CCCN(c3nc(C)cc(C)n3)C2)cc1 (centres undefined),.,-14.4,-1.8,-3.2,i,-13.6,0.1,1.0
O=C(CNS(=O)(=O)c1ccc(Cl)cc1)NNC(=O)c1cccnc1,-1.5,11.5,0.3,7.2,i,.,4.8,0.7
COc1ccc(S(=O)(=O)NCc2ccncc2)cc1NC(=O)c1ccc(Cl)cc1,42.5,9.0,-4.2,.,i,4.7,.,-28.6
O=C(O)CNC(=O)c1ccc2c(c1)OCCO2,-9.1,.,2.1,7.2,i,-14.0,2.9,2.1
CCN1CCN(CC(=O)c2c(C)n(C)c3ccc(OC)cc23)CC1,-1.8,4.8,-1.8,-2.7,.,-8.7,-2.1,1.0
O=C(NCC1CCCO1)c1ccc2ccccc2n1 (centres undefined),7.6,.,3.5,-3.7,i,-6.7,-8.9,2.0
O=C(CN(Cc1ccco1)C(=O)Cn1nnc(-c2cccs2)n1)NCC1CCCO1 (centres undefined),-11.3,9.9,0.6,5.0,i,5.1,8.1,4.0
CCOCCCN(C(=O)c1snc(C(N)=O)c1N)C(C(=O)NC1CCCC1)c1ccc(O)cc1 (centres undefined),.,0.0,-7.2,23.8,i,4.4,-11.6,-0.5
COc1cc(NC(=O)c2cc(-c3cccnc3)nc3ccc(C)cc23)c(OC)cc1Cl,-15.0,.,.,3.9,i,.,-9.1,.
CCc1ccccc1Nc1ccc(C(=O)O)cc1N,.,.,2.8,18.4,i,-14.9,11.3,6.9
COCC(C)n1c(C)cc(C(=O)COC(=O)c2cccn2C)c1C (centres undefined),-4.3,-2.0,3.8,.,.,-57.7,.,2.1
Cc1ccc(/C=N/NC(=O)c2cc(-c3cccnc3)nc3ccccc23)cc1,42.1,-262.8,12.6,-2.6,i,.,-4.4,-3.0
Cc1nnc(SCC(=O)N(CC(C)C)c2c(N)n(Cc3ccccc3)c(=O)[nH]c2=O)n1N,-9.4,21.0,-4.2,.,i,-22.8,.,0.6
Cc1c(C(=O)OCC(=O)N(C)CC(=O)Nc2ccc(F)cc2)oc2ccccc12,7.5,.,9.5,.,.,-11.8,.,0.9
Cc1nc(C(F)(F)F)ccc1C(=O)N1CCC1(C)C(=O)NS(=O)(=O)c1cccc(C#N)c1 (centres undefined),.,-9.1,-2.0,.,.,-11.6,.,-0.6
COc1ccccc1N1CCN(/N=C/C=C/c2ccccc2[N+](=O)[O-])CC1,22.1,9.5,3.7,1.4,i,-6.8,-2.6,-4.4
CC(=O)Nc1ccc(NC(=O)C(C)OC(=O)CNS(=O)(=O)c2cccc(Cl)c2)cc1 (centres undefined),-17.6,-15.6,-1.4,7.2,i,-6.0,3.9,5.6
Cc1cc(C)c2[nH]c(=S)cc(C)c2c1,-22.5,55.2,-0.8,1.1,i,-7.9,-5.0,4.0
COC(=O)Cc1ccc(OCC(=O)NC2CCCC2)cc1,.,-8.4,10.1,.,.,-17.8,.,1.3
CCOc1ccc(N2C(=O)CC(N(CCc3ccc(S(N)(=O)=O)cc3)C(C)=O)C2=O)cc1 (centres undefined),-3.8,-74.6,4.0,-2.2,i,-12.7,-2.9,3.2
COc1cccc(C(=O)Nc2ccc3c(cc2=O)[C@@H](NC(C)=O)CCc2cc(OC)c(OC)c(OC)c2-3)c1,57.4,.,1.1,7.6,i,3.6,-10.1,-9.3

(listing goes on)
Compound,CSC inhib,Env fusion inh,MT1-MMP act inh,PABP FP inh,Rce1 inh,Yeast UUG start,eIF4H FP inh,MT1-MMP act inh RFP
CC(C)(C)c1ccc(S(=O)(=O)Nc2cccnc2)cc1,-2.3,21.6,5.1,0.3,i,-4.9,-12.7,-4.7
C=CCOC(=O)C(=O)/C=C/c1c(C)n(C)n(-c2ccccc2)c1=O,4.8,9.3,4.3,3.5,i,3.8,-1.6,4.9
Clc1cccc(-c2nc3c4ccccc4ccn3c2CC2CCCCC2)c1,.,17.3,-1.3,.,.,-15.0,.,2.7
COc1cc(/C=C/C(=O)OCC(=O)NC(=O)C2COc3ccccc3O2)ccc1OC(F)F (centres undefined),-7.4,.,7.4,.,.,-17.5,.,7.9
CCNC(=S)N/N=C(\C)c1ccc2ccccc2c1OC(F)F,-10.3,1.8,-3.0,33.7,i,.,-3.4,-4.5
COc1cc(NC2c3ccccc3C(=O)N2Cc2ccccc2Cl)cc(OC)c1OC (centres undefined),.,49.6,4.7,2.3,i,-4.6,5.4,0.6
COCOCCn1cc(CN2CCS(=O)(=O)N(Cc3ccc(-c4ccc(F)cc4)cc3)C(C(C)C)C2=O)nn1 (centres undefined),.,15.7,1.8,.,.,0.9,.,-6.3
NC(=O)C1CCN(C(=O)CN(c2cccc(Cl)c2)S(=O)(=O)c2ccccc2)CC1,1.9,-0.1,1.2,4.0,.,-13.3,-6.4,2.3
Cc1ccc(NC(=O)OCCN2CCN(Cc3ccccc3)CCC2=O)cc1,19.1,-19.0,2.9,17.2,i,-3.3,-2.7,-4.5

3 compounds already listed, ordered by their value in MT1-MMP act inh RFP, rising:
mol | Env fusion inh | MT1-MMP act inh | Rce1 inh | Yeast UUG start | MT1-MMP act inh RFP
COc1cc(NC2c3ccccc3C(=O)N2Cc2ccccc2Cl)cc(OC)c1OC (centres undefined) | 49.6 | 4.7 | i | -4.6 | 0.6
Clc1cccc(-c2nc3c4ccccc4ccn3c2CC2CCCCC2)c1 | 17.3 | -1.3 | . | -15.0 | 2.7
C=CCOC(=O)C(=O)/C=C/c1c(C)n(C)n(-c2ccccc2)c1=O | 9.3 | 4.3 | i | 3.8 | 4.9

Screening results as filed in PubChem BioAssay.
